HIV Env fusion = HIV envelope-mediated fusion inhibition; AID 651610; HeLa-JRFL Env/CEM21 cell fusion, luciferase; inhibition, % at 12.3 µM; 360,000 compounds, 1.1% hits;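 active = mean replicate inhibition score of at least 50 and every replicate individually at or above 50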;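 also: 0% = plate neutral controls and 100% = maraviroc near 300 nM; one replicate is shown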
Starred values were filed as active, the others as inactive; [ ] = another dose, or the depositor's remark. The list is partial; rates above refer to the full screens.

HIV Env fusion | Molecule
3.0[16.7 µM] | CO[C@@H]1CN(C)C(=O)c2cc(NC(=O)NC(C)C)ccc2OC[C@H](C)N(Cc2ccccc2)C[C@@H]1C
-6.5[16.7 µM] | CO[C@@H]1CN(C)C(=O)c2cc(NC(=O)NC(C)C)ccc2OC[C@@H](C)N(C(=O)C2CCC2)C[C@H]1C
0.6[16.7 µM] | CCCC(=O)Nc1ccc2c(c1)OC[C@H](C)N(Cc1ccccn1)C[C@H](C)[C@H](OC)CN(C)C2=O
-2.1 | COC(=O)N1C[C@H](OC(=O)c2ccc(-c3ccccc3)cc2)[C@H]2C[C@@H]1c1ccccc1O2
1.7[16.7 µM] | O=C(C[C@H]1CC[C@@H]2[C@H](COC[C@@H](O)CN2S(=O)(=O)c2ccccc2F)O1)NCc1ccccc1F
0.9[16.7 µM] | CO[C@@H]1CC[C@@H]2CCN(C)C(=O)[C@H](C)N(C)C(=O)c3cccc(C#N)c3OC[C@H]1O2
3.8[16.7 µM] | COCC(=O)Nc1ccc2c(c1)[C@@H]1C[C@H](CC(=O)NCc3ccccc3F)O[C@@H](CO)[C@@H]1O2
7.2[16.7 µM] | COCC(=O)Nc1ccc2c(c1)[C@@H]1C[C@H](CC(=O)N3CCOCC3)O[C@@H](CO)[C@@H]1O2
5.3[16.7 µM] | CCNC(=O)Nc1ccc2c(c1)C(=O)N(C)[C@@H]1CC[C@H](CC(=O)N[C@H](C)c3ccccc3)O[C@@H]1CO2
-1.5[16.7 µM] | COc1ccc(CN(C)C[C@H]2Oc3ccc(NC(=O)NC(C)C)cc3C(=O)N([C@@H](C)CO)C[C@@H]2C)cc1
1.6[16.7 µM] | C[C@H]1CN([C@@H](C)CO)C(=O)c2cccc(NC(=O)Nc3ccc(F)cc3)c2O[C@@H]1CN(C)S(=O)(=O)c1cn(C)cn1
27.2[16.7 µM] | C[C@@H]1CN([C@@H](C)CO)C(=O)c2cc(NC(=O)Nc3ccc(C(F)(F)F)cc3)ccc2O[C@H]1CN(C)S(=O)(=O)c1ccccc1
-5.9[16.7 µM] | CCCNC(=O)N1C[C@H](C)[C@@H](OC)CN(C)C(=O)c2ccc(NC(=O)C3CCC3)cc2OC[C@H]1C
7.1[16.7 µM] | CC(=O)N(C)C[C@H]1Oc2cc(C3=CCCCC3)ccc2S(=O)(=O)N([C@@H](C)CO)C[C@@H]1C
6.4 | CCOC(=O)[C@@H]1CSCCS(=O)(=O)N1Cc1ccc(C(F)(F)F)cc1
6.6 | CN1CCCCC(NC(=O)c2c(F)cccc2F)C1=O (stereo not given)
23.7 | Cc1ccccc1S(=O)(=O)N1CCCc2nc(-c3ccccc3)ccc21
43.4 | COc1ccc(CN(C2CCCC2)S(=O)(=O)c2cc(Br)ccc2Br)c(OC)c1
-4.0[16.7 µM] | COc1cccc(-c2cccc(-c3nc(C(=O)N4CCN(C)CC4)cc4c3[C@@H](CCO)N(S(=O)C(C)(C)C)C4)c2)c1 (stereo not given in full)
0.0[16.7 µM] | CO[C@@H]1CC[C@H]2CCN(C)C(=O)[C@H](C)[C@H](OC)CN(C)C(=O)c3cc(C#N)ccc3OC[C@@H]1O2
60.4*[16.7 µM] | C[C@H](CO)N1C[C@H](C)[C@H](CN(C)C(=O)C2CC2)OCc2ccccc2-c2c(n(C)c3ccccc23)C1=O
-13.2 | O=C(C=Cc1ccc(O)c(O)c1)NCC(=O)NC(Cc1ccccc1)C(=O)O (stereo not given)
24.1[16.7 µM] | O=C(C[C@H]1CC[C@H]2[C@@H](COC[C@@H](O)CN2Cc2ccc(Oc3ccccc3)cc2)O1)N1CCN(c2ccccc2)CC1
-21.1[16.7 µM] | CO[C@@H]1CC[C@@H]2CCOc3c(C#N)cccc3C(=O)N(C)C[C@@H](OC)[C@@H](C)C(=O)N(C)C[C@@H]1O2
-6.2[16.7 µM] | COc1ccccc1CNC(=O)C[C@@H]1C[C@@H]2c3cc(NC(=O)Cc4ccncc4)ccc3O[C@@H]2[C@@H](CO)O1

Sorted by the number under HIV Env fusion (low to high): 5 of the compounds above.
HIV Env fusion | Molecule
-13.2 | O=C(C=Cc1ccc(O)c(O)c1)NCC(=O)NC(Cc1ccccc1)C(=O)O (stereo not given)
-2.1 | COC(=O)N1C[C@H](OC(=O)c2ccc(-c3ccccc3)cc2)[C@H]2C[C@@H]1c1ccccc1O2
6.4 | CCOC(=O)[C@@H]1CSCCS(=O)(=O)N1Cc1ccc(C(F)(F)F)cc1
6.6 | CN1CCCCC(NC(=O)c2c(F)cccc2F)C1=O (stereo not given)
43.4 | COc1ccc(CN(C2CCCC2)S(=O)(=O)c2cc(Br)ccc2Br)c(OC)c1

Some of the entries so far, tab-delimited:
SMILES	HIV Env fusion
COc1ccc(CN(C2CCCC2)S(=O)(=O)c2cc(Br)ccc2Br)c(OC)c1	43.4
COc1cccc(-c2cccc(-c3nc(C(=O)N4CCN(C)CC4)cc4c3[C@@H](CCO)N(S(=O)C(C)(C)C)C4)c2)c1 (stereo not given in full)	-4.0[16.7 µM]
CO[C@@H]1CC[C@H]2CCN(C)C(=O)[C@H](C)[C@H](OC)CN(C)C(=O)c3cc(C#N)ccc3OC[C@@H]1O2	0.0[16.7 µM]
C[C@H](CO)N1C[C@H](C)[C@H](CN(C)C(=O)C2CC2)OCc2ccccc2-c2c(n(C)c3ccccc23)C1=O	60.4*[16.7 µM]

The list continues:
HIV Env fusion | Molecule
34.8[16.7 µM] | C[C@H]1CN([C@@H](C)CO)C(=O)c2ccccc2-c2ccccc2CO[C@@H]1CN(C)C(=O)NC1CCCCC1
16.8[16.7 µM] | CC(=O)Nc1ccc2c(c1)C(=O)N(C)[C@@H]1CC[C@@H](CC(=O)NCCCN3CCOCC3)O[C@H]1CO2
-19.6 | CCn1c(N)cc(=O)[nH]c1=S
-10.0[16.7 µM] | Cc1ccc(S(=O)(=O)N(C)C[C@H]2Oc3c(NS(=O)(=O)c4cn(C)cn4)cccc3C(=O)N([C@H](C)CO)C[C@@H]2C)cc1
-35.2 | O=C(NCc1ccccc1)[C@H]1CCCN1C(=O)[C@@H]1CCCN1C(=O)c1ccc(Cl)cc1Cl
16.2[16.7 µM] | C[C@@H]1CN([C@H](C)CO)S(=O)(=O)c2ccc(C#CC3CC3)cc2O[C@H]1CN(C)Cc1cncnc1
-26.4[16.7 µM] | C[C@@H]1CN([C@H](C)CO)C(=O)c2ccccc2-c2ccccc2CO[C@@H]1CN(C)C(=O)N[C@H](C)c1ccccc1
12.7[16.7 µM] | COc1cccc(NC(=O)Nc2ccc3c(c2)C(=O)N(C)[C@H]2CC[C@@H](CC(=O)NCCc4ccccc4)O[C@H]2CO3)c1
10.6[16.7 µM] | CC(C)NC(=O)Nc1ccc2c(c1)CC(=O)N([C@@H](C)CO)C[C@@H](C)[C@@H](CN(C)CC1CC1)O2
0.0[16.7 µM] | C[C@@H]1CN([C@@H](C)CO)C(=O)c2cc(NS(=O)(=O)c3ccccc3)ccc2O[C@H]1CN(C)C
67.5* | Cc1cc(Nc2cccc(C(F)(F)F)c2)cc(=O)n1-c1cccc(C(F)(F)F)c1
-5.9 | NC(Cc1ccc(O)cc1)C(=O)NN=Cc1ccccc1O (stereo not given)
-55.8 | CN(c1ccc(NC(=O)CCc2c[nH]c3ccccc23)cc1)c1ccccn1
2.9[16.7 µM] | COc1ccc(NC(=O)N(C)C[C@H]2Oc3ccc(N(C)C)cc3C(=O)N([C@@H](C)CO)C[C@@H]2C)cc1
-4.8[16.7 µM] | CCCNC(=O)N1C[C@@H](C)[C@H](OC)CN(C)C(=O)c2cc(NS(C)(=O)=O)ccc2OC[C@@H]1C
-15.1[16.7 µM] | O=C(C[C@H]1C=C[C@@H](NC(=O)Cc2cccnc2)[C@H](CO)O1)Nc1ccccc1
-4.4[16.7 µM] | COc1ccc(CN2C[C@H](O)COC[C@@H]3O[C@@H](CC(=O)NCCN4CCCC4)CC[C@H]32)cc1
-8.0[16.7 µM] | O=C([C@@H]1[C@@H](CO)[C@@H]2Cn3c(ccc(C4=CCCC4)c3=O)[C@@H]2N1CC1CC1)N1CCCCC1
5.6[16.7 µM] | CCS(=O)(=O)Nc1ccc2c(c1)C(=O)N(C)[C@@H]1CC[C@@H](CC(=O)NC)O[C@H]1CO2
12.8[16.7 µM] | CCN1[C@H](C(=O)NCc2ccc(F)cc2)[C@@H](CO)[C@@H]2Cn3c(ccc(-c4ccccc4OC)c3=O)[C@@H]21
9.3 | COCc1cc(N2CCNC[C@H]2C)ccc1N1CCN(Cc2ccccc2)[C@@H](C)C1
6.8[16.7 µM] | CCCNC(=O)N[C@H]1C=C[C@H](CC(=O)NCCc2ccccc2)O[C@@H]1CO
1.5[16.7 µM] | COc1ccccc1-c1cccc(-c2nc(C(=O)N3CCOCC3)cc3c2[C@@H](CCO)N([S@](=O)C(C)(C)C)C3)c1
-27.4 | Cc1ccc(N2CCN(C(=O)C(=O)c3cccc(Br)c3)CC2)cc1
-4.8 | C[C@@H]1ON(C)[C@H]2C[C@H]3c4cc(Br)ccc4CCN3C[C@@H]12

Later entries
HIV Env fusion | Molecule
0.1 | COC(=O)c1cc2c(c3c4cc(OC)ccc4n(S(=O)(=O)c4ccc(C)cc4)c13)C(=O)N(C)C2
-1.3[16.7 µM] | O=C(N[C@@H]1CC[C@H](CCn2cc(Cc3ccccc3)nn2)O[C@@H]1CO)c1cnccn1
-20.4[16.7 µM] | CC(C)[C@@H]1COCc2cn(nn2)CC[C@@H](Cc2ccccc2)C(=O)N1
-11.8[16.7 µM] | Cc1noc(C)c1NC(=O)N(C)C[C@H]1Oc2ccc(NC(=O)Cc3ccccc3)cc2C(=O)N([C@@H](C)CO)C[C@@H]1C
-5.4[16.7 µM] | C[C@H]1CN([C@@H](C)CO)C(=O)c2cc(-c3ccc(C(=O)N(C)C)cc3)cnc2O[C@@H]1CN(C)C(=O)c1ccncc1
10.1 | Nc1[nH]c(C(=O)c2ccccc2)c(-c2ccc(Cl)cc2Cl)c1C(=O)c1ccccc1
-20.5 | CCCCc1c(-c2ccccc2OC)ncn1Cc1cc(F)ccc1F
-8.1[16.7 µM] | O=C1c2ccccc2C(=O)N1C1CCN(Cc2cccc(OCCO)c2)CC1
12.1[16.7 µM] | CN1C(=O)c2cc(NC(=O)C3CCOCC3)ccc2OC[C@@H]2O[C@@H](CC(=O)NCc3ccc4c(c3)OCO4)CC[C@H]21
-52.0 | COC(=O)C1=C(C)N(C)C(=NCc2ccccc2C(F)(F)F)NC1c1ccc(Cl)cc1 (stereo not given)
-7.5 | O=C(N[C@H](Cc1ccccc1)C(=O)N1CCN(CC(=O)N2CCCC2)CC1)[C@H]1O[C@@H](n2ccc(=O)[nH]c2=O)[C@H](O)[C@@H]1O
-65.5 | COc1ccc(Nc2nnc(-c3ccc4c(c3)OCO4)o2)cc1
-1.2 | O=C(N[C@H](C(=O)N1CCC[C@H]1C(=O)NC1CCCC1)C1CCCCC1)c1ccccn1
17.5[16.7 µM] | O=C(C[C@@H]1CC[C@@H](NC(=O)Cc2cccnc2)[C@H](CO)O1)Nc1ccc(-c2ccccc2)cc1
14.4[16.7 µM] | C[C@H]1CN([C@@H](C)CO)C(=O)c2cc(NC(=O)Nc3ccc(F)cc3)ccc2O[C@@H]1CN(C)C(=O)Nc1ccc2c(c1)OCO2
5.9[16.7 µM] | COc1ccc(NC(=O)N(C)C[C@H]2OCCCC[C@H](C)Oc3ccc(NC(=O)c4ccccc4)cc3C(=O)N([C@@H](C)CO)C[C@H]2C)cc1
6.8[16.7 µM] | CO[C@@H]1CN(C)C(=O)c2ccc(NC(=O)NC(C)C)cc2OC[C@H](C)N(C(=O)CC2CC2)C[C@@H]1C
17.8[16.7 µM] | COc1ccc(S(=O)(=O)N(C)C[C@H]2Oc3c(NC(=O)Nc4ccc(F)cc4)cccc3C(=O)N([C@H](C)CO)C[C@H]2C)cc1
-10.5[16.7 µM] | O=S(=O)(NC[C@@H]1CC[C@H]2[C@H](CN2Cc2cccc(-c3ccccn3)c2)O1)c1ccccc1
9.9[16.7 µM] | COc1cccc(C(=O)Nc2ccc3c(c2)C(=O)N(C)[C@H]2CC[C@@H](CC(=O)NCCCN4CCOCC4)O[C@@H]2CO3)c1
-5.3[16.7 µM] | Cc1ccccc1S(=O)(=O)NCC[C@H]1CC[C@H](NS(=O)(=O)c2ccccc2C)[C@H](CO)O1
17.0[16.7 µM] | CN1c2ccc(-c3ccccc3F)cc2[C@@H]2[C@@H](CCN2C(=O)NC2CCCCC2)[C@H]1CO
-48.6[16.7 µM] | O=C(C[C@@H]1C[C@@H]2c3cc(NC(=O)C4CCC4)ccc3O[C@@H]2[C@@H](CO)O1)NC1CCCC1
-5.2 | Cc1[nH]c2ccccc2c1CC(=O)Nc1ccc(Nc2cccnc2)c(-c2ccc(Oc3ccccc3)cc2)c1
-12.0[16.7 µM] | C[C@@H]1CN([C@H](C)CO)C(=O)Cc2cc(NS(=O)(=O)c3ccccc3)ccc2O[C@H]1CN(C)C(=O)Nc1ccc(C(F)(F)F)cc1

Continuation:
HIV Env fusion | Molecule
-8.9[16.7 µM] | C[C@H](NC(=O)C[C@H]1C[C@H]2c3cc(NS(=O)(=O)c4ccc(F)cc4)ccc3O[C@H]2[C@@H](CO)O1)c1ccccc1
26.8[16.7 µM] | COc1ccc(S(=O)(=O)Nc2ccc3c(c2)C(=O)N(C)C[C@@H](OC)[C@H](C)CN(Cc2cc(F)ccc2F)[C@H](C)CO3)cc1
-8.1[16.7 µM] | C[C@H](CO)N1C[C@H](C)[C@@H](CN(C)Cc2ccccn2)Oc2cc(-c3ccc(C#N)cc3)ccc2S1(=O)=O
-13.2 | O=C(NCC1CCN(C(=O)C(=O)c2cccs2)CC1)c1ccc2ccccc2c1
19.6 | COc1ccccc1C(=O)N1CCC2CCN(C(=O)c3ccccc3)C2C1 (stereo not given)
10.4 | CN(C)CCCNC(=O)c1c(N)[nH]c(C(=O)c2ccc(Br)cc2)c1-c1ccc(Br)cc1
